CSC inhib = blocks cancer stem cells; cancer stem cell-like cells viability, luminescence; inhibition, % at 7.5 µM; 1.1% of 300,000 active; AID 2717;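 active = mean at 75% or more and at least half the replicates too; inconclusive = mean and replicates disagree; tested in HMLE shEcad cells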;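 also: 0% = median of negative and 100% = median of positive control wells; the first replicate is given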
Rce1 inh = inhibitors of yeast Ras-converting enzyme; Q03530; yeast membranes, quenched prenylated peptide cleavage fluorescence; calls only; 0.27% of 290,000 active; AID 2563;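 active = fall in fluorescence gain of 50% or more versus controls, with final raw signal at or below 3038400; inconclusive = same 50% fall but final raw signal above 3038400; inactive = fall in fluorescence gain under 50%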;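 also: plate controls were neutral control wells for no effect and wells lacking membranes for full effect; tested at 10 µM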
eIF4H FP inh = inhibitors of RNA binding by human eIF4H; 0.94% of 290,000 active; eIF4H fluorescence polarization binding assay; inhibition, % at 35 µM; Q15056;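 active = 50% or more with normal probe brightness, or confirmed in later tests; inconclusive = above 50% with abnormal brightness, or retests that disagree; inactive = below 50% or failed in later tests; about a fifth of its hits are not listed in these tables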;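 also: calls also rest on retests at 20 µM and on dose response follow-up; 0% = protein and probe with vehicle and 100% = probe without protein; strong numbers were not always called active; many hits fall short of the cut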
MT1-MMP act inh = inhibitors of human MT1-MMP activation. HT1080 RFP-PRO-GFP cells, GFP/RFP ratio fluorescence, overnight; percent of plate control window, DMSO zero. GFP/RFP ratio change, % at 20 µM. 0.061% of 360,000 active. AID 651647;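 active = GFP/RFP ratio change of at least 30% with cell ATP level not reduced by more than half and red fluorescence within 50% of control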; also: strong numbers were not always called active
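Material – HT1080 RFP-PRO-GFP cells · Control set – DMSO wells and RFP-L50D-GFP cells · Incubation – overnight cell settling, then overnight compound exposure, 37 °C, 5% CO2 · Compound dosing – single-point 20 µM compound, 1% DMSO · Read-out – GFP/RFP fluorescence ratio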
UUG fidelity = modulators of start codon recognition fidelity in yeast; AID 602363; 0.13% of 350,000 active; activity score, % at 18.7 µM; S. cerevisiae UUG-firefly luciferase reporter, luminescence/redox ratio;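 active = replicate mean at a twofold rise or more, about +100% in these data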;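 also: firefly luciferase made from a UUG start codon reports start codon fidelity; reporter light over untreated wells divided by growth signal over untreated wells; some hits fall short of that in this replicate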
HIV Env fusion = HIV envelope-mediated fusion inhibition; 1.1% of 360,000 active; inhibition, % at 12.3 µM; HeLa-JRFL Env/CEM21 cell fusion, luciferase;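 active = mean replicate inhibition score of at least 50 and every replicate individually at or above 50; inconclusive = only one of the two criteria met; inactive = mean below 50 and not all replicates reaching 50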;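 also: 0% = plate neutral controls and 100% = maraviroc near 300 nM; one replicate is shown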
PABP FP inh = blocks human PABP binding to poly(A) RNA. P11940. fluorescence polarization. inhibition, % at 35 µM. 1% of 290,000 active. AID 2014;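 active = 50% or more with normal probe brightness, or confirmed in later tests; inconclusive = above 50% with abnormal brightness, or retests that disagree; inactive = below 50% or failed in later tests; about a fifth of its hits are not listed in these tables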;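 also: calls also rest on retests at 20 µM and on dose response follow-up; controls were probe without protein and protein plus probe with vehicle; some compounds called inactive have numbers as strong as hits; many hits fall short of the cut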
Target sequence (P11940 whole entry, looked up): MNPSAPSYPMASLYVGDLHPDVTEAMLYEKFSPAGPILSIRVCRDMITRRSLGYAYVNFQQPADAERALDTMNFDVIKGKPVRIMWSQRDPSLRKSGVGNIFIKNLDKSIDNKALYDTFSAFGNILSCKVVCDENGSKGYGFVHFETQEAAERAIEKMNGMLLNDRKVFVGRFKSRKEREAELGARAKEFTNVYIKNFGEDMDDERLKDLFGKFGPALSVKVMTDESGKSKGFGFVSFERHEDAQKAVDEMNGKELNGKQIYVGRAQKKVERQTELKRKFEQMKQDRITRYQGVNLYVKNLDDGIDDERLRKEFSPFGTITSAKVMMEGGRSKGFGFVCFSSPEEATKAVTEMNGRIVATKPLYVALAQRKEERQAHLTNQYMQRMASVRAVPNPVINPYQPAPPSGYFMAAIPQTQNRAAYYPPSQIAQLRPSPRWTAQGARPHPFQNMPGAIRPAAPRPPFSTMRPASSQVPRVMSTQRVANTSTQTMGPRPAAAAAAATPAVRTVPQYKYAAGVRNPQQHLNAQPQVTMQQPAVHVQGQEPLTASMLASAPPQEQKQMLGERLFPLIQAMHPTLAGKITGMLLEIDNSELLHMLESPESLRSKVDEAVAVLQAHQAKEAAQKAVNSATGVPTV
eIF4H FP inh retest = recorded beside eIF4H FP inh, whose call it bears; inhibition, %; compound at 20 µM; confirmation average;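 mean of two retest wells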
PABP FP inh retest = recorded beside PABP FP inh, whose call it bears; inhibition, %; compound at 20 µM; confirmation repeats;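 mean of two retest wells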
MT1-MMP act inh RFP = also measured in MT1-MMP act inh; calls as there; RFP signal change, %; measured here: RFP expression control read;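 0 = vehicle wells; hits needed this value within 50% of zero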
Active calls of the source: *; i = inactive; u = inconclusive; x = no result given.

SMILES	CSC inhib	Rce1 inh	eIF4H FP inh	MT1-MMP act inh	MT1-MMP act inh RFP	UUG fidelity	HIV Env fusion	PABP FP inh	others
COC(=O)c1cnc(N2CCCN(S(=O)(=O)c3ccc(C(F)(F)F)cc3)CC2)nc1C(F)(F)F	11	i	-12	5	4	x	25	9
CCN(CCNC(=O)C1CCN(Cc2nc(-c3ccc(Cl)cc3)oc2C)CC1)c1ccccc1	40	i	6	4	-11	-1	8	-11
CCCCS(=O)(=O)/C=C\C1C2C=CC(C2)C1S(=O)(=O)CCCC (stereo unspecified)	-2	i	-3	3	5	7	x	-2
O=C(O)c1cccc(Cn2c(Cl)c(/C=N/NC(=O)c3cc4ccccc4cc3O)sc2=O)c1	33	i	102*	3	10	-15	-4	82*
CC1=NN(c2ccccc2)C(=O)C1/C=C1\NC(=S)NC1=O (stereo unspecified)	-21	i	-4	-11	1	-7	2	-1
CCOc1ccc(C(=O)NCc2ccccc2)cc1Br	-3	i	9	6	-4	-2	x	-1
C[C@H]1COC(=O)[C@@H](Cc2ccc(F)cc2)C/C=C\C[C@H](CC(=O)N(CCO)Cc2ccccc2)C(=O)N1	2	x	x	4	1	-1	-13	x
COc1ccc(N(C(C)C(=O)NC2CCCCCC2)S(C)(=O)=O)cc1 (stereo unspecified)	12	i	-8	3	3	x	-22	-2
C=CCN(c1ccccc1)S(=O)(=O)c1cc(C(=O)NC2=NCCS2)ccc1Cl	10	i	2	2	-6	15	5	20
CCC(C(=O)OCC(=O)Nc1cc(Cl)cc(Cl)c1)c1ccccc1 (stereo unspecified)	9	i	0	3	5	-1	10	3
COC(=O)CN(c1ccc(OCc2ccccc2)cc1)S(C)(=O)=O	-5	i	-10	-5	-11	x	4	-15
O=C(Nc1ccc(SC(F)F)cc1)C1=CC=CN2CCS(=O)(=O)N=C12	-3	x	x	2	-1	-20	0	x
O=C(C1CC(c2ccc(F)cc2)=NO1)N1CCCCC1 (stereo unspecified)	-8	i	0	-2	1	x	x	4
O=C(Nc1ccccc1F)c1cc(S(=O)(=O)N2CCOCC2)cs1	-12	i	4	-4	-1	-10	-6	4
CCOC(=O)COc1ccc(S(=O)(=O)N2CCN(c3ccc(F)cc3)CC2)cc1	4	i	2	0	4	-5	-38	8
Cn1nc(-c2ccc(C(=O)NC3CCCCC3)cc2)c2ccccc2c1=O	-5	i	-5	2	-3	-26	-3	1
COc1ccc(O)c(C(=O)CC(=O)c2ccccc2C)c1	32	i	8	-12	-8	-16	-17	1
COCCNC(=O)C1(C)CCCN(C(=O)c2ccccc2OC)C1 (stereo unspecified)	x	x	x	1	7	-11	-6	x
CC(=O)Nc1ccc(S(=O)(=O)NC(C(=O)O)C2=CCC=CC2)cc1 (stereo unspecified)	2	i	-3	2	1	-2	x	14
OC1(c2ccc(Cl)c(Cl)c2)C[n+]2ccccc2N1Cc1ccccc1 (stereo unspecified)	9	x	-3	-8	-5	-7	11	-11

An excerpt from above in order of count of non-hydrogen atoms, smallest number first:
SMILES	CSC inhib	Rce1 inh	eIF4H FP inh	MT1-MMP act inh	MT1-MMP act inh RFP	UUG fidelity	HIV Env fusion	PABP FP inh	others
CCC(C(=O)OCC(=O)Nc1cc(Cl)cc(Cl)c1)c1ccccc1 (stereo unspecified)	9	i	0	3	5	-1	10	3
OC1(c2ccc(Cl)c(Cl)c2)C[n+]2ccccc2N1Cc1ccccc1 (stereo unspecified)	9	x	-3	-8	-5	-7	11	-11
Cn1nc(-c2ccc(C(=O)NC3CCCCC3)cc2)c2ccccc2c1=O	-5	i	-5	2	-3	-26	-3	1
O=C(O)c1cccc(Cn2c(Cl)c(/C=N/NC(=O)c3cc4ccccc4cc3O)sc2=O)c1	33	i	102*	3	10	-15	-4	82*
CCN(CCNC(=O)C1CCN(Cc2nc(-c3ccc(Cl)cc3)oc2C)CC1)c1ccccc1	40	i	6	4	-11	-1	8	-11

(listing goes on)
SMILES	CSC inhib	Rce1 inh	eIF4H FP inh	MT1-MMP act inh	MT1-MMP act inh RFP	UUG fidelity	HIV Env fusion	PABP FP inh	others
CC[C@H](C)[C@H](NC(=O)OCc1ccccc1)C(=O)Nc1ccc(NC(C)=O)cc1	-8	i	3	1	-2	x	-10	4
O=S(=O)(Nc1cccc(-n2cnnn2)c1)c1ccccc1	-27	i	-3	2	2	-21	-4	-6
CC(C)(C)OC(=O)N1CC2Cc3[nH]c(=O)ccc3C(C2)C1 (stereo unspecified)	x	i	-12	-1	2	-12	-36	-2
CC(Nc1nc(N2CCN(S(C)(=O)=O)CC2)nc2ccccc12)c1ccccc1 (stereo unspecified)	-9	i	-6	6	1	-4	-20	-3
O=C(N/C=C\c1ccccc1)NCc1ccc(Cl)cc1Cl	1	i	0	-6	-3	-7	x	-3
COc1ccc(S(=O)(=O)N2CCC(NC(=O)C3CCCCC3)CC2)cc1	x	i	9	0	0	-11	-2	1
C=CCSc1nc2ccccc2c(=O)[nH]1	10	i	0	2	-1	-14	6	-4
CCOc1cc(/C=C2\C(=N)N3N=C(S(=O)(=O)CC)SC3=NC2=O)ccc1OC(=O)c1ccco1	-10	i	-4	-42	18	-4	-7	27
COCCOC(=O)c1c(C)oc2ccc(OS(C)(=O)=O)cc12	-7	i	6	-1	0	x	-8	-14
CC(CNC(=O)COc1ccc2c(c1)OCO2)c1ccccc1 (stereo unspecified)	-9	x	x	-1	3	-2	x	x
O=C(Nc1ccc(F)cc1)N1CCN(CCc2ccccc2)CC1	0	i	3	3	4	x	-21	62	eIF4H FP inh retest=-7;PABP FP inh retest=14
Cc1cccc(-n2ccnc2SCC(=O)Nc2ccc3c(c2)OCCO3)c1	0	i	2	2	1	x	x	-6
O=C(N/N=C/C=C\c1ccccc1[N+](=O)[O-])c1ccccn1	4	i	-8	1	3	-20	-10	5
Cc1cc(C)n(-c2nnc(C)n2/N=C/c2ccccc2F)n1	7	i	0	2	-1	-18	-12	2
O=C(c1ccc(F)cc1)c1cc2ccccc2o1	x	i	-6	-1	0	-10	-275	-6
COC(=O)c1cccc(NC(=O)Nc2ccc(Cl)c(Cl)c2)c1	97*	i	-3	1	-14	-8	x	7
CCc1cc2c(NCC3CCCO3)ncnc2s1 (stereo unspecified)	0	i	-2	3	-7	-10	5	29
Cn1c(=O)cc(SCC(=O)NCc2ccc(F)cc2)c2ccccc21	13	i	-7	2	-1	x	-5	0
COc1ccccc1C1CC(c2ccc(F)cc2)Nc2ncnn21 (stereo unspecified)	-1	i	0	3	3	-14	31	4
CCN(CC)C(=O)C1CCCN(Cc2ccc(F)c(F)c2)C1 (stereo unspecified)	14	i	-1	2	3	-11	-95	7
O=C1CCC/C(=N\NC(=O)NC2CCCCC2)C1	-17	i	4	-1	3	x	5	-8
C[C@@H]1NS(=O)(=O)[C@H]2C[C@@H]3C=C[C@]2(O3)[C@H]1OC(=O)c1ccc(C(C)(C)C)cc1	-6	x	x	7	-1	-9	-19	x
Cc1cc(S(=O)(=O)N(Cc2ccc3c(c2)OCO3)CC2CCCO2)ccc1-n1cnnn1 (stereo unspecified)	0	i	-6	-2	-2	-1	x	-2
O=C(Nc1nccs1)c1sc2cc(Cl)ccc2c1Cl	54	i	2	6	-9	-7	-442	0
Cc1c(CC(=O)NCC(=O)N[C@H](Cc2ccccc2)C(=O)O)c(=O)oc2cc(O)ccc12	-18	u	4	2	3	-8	x	11
CCn1cc(C(=O)NN)c(=O)c2cc(F)c(N3CCN(C)CC3)cc21	-12	i	-4	1	-2	-6	-9	-7
Cn1c(=NC(=O)C2CC2)sc2cccc(F)c21	1	i	4	-3	4	-21	-47	7
O=C(Nc1cccc([N+](=O)[O-])c1)c1cc(S(=O)(=O)N2CCOCC2)cs1	-4	i	3	6	-4	-4	-1	-16
Cc1noc(C)c1CSCC(=O)Nc1cc(S(=O)(=O)N2CCCCC2)ccc1OC(C)C	-5	i	x	2	-2	x	15	x
CCNc1nc(NC(C)C)nc(OCCOC(=O)c2ccccc2)n1	-5	i	-3	7	1	x	14	-1
Cc1cc(C)cc(NS(=O)(=O)CCCS(=O)(=O)Nc2cc(C)cc(C)c2)c1	x	x	x	-4	-4	-27	i	x
Cc1sc(NC(=O)/C=C/c2ccc(C(C)C)cc2)c(C#N)c1C	21	i	-19	-7	-3	-14	-8	1
CCc1ccc(NC(=O)CSc2nnc(C3CC3)n2CC2CCCO2)cc1 (stereo unspecified)	-7	i	-15	-1	-2	-14	4	-3
CCOc1ccc(C(=O)NCCc2cnc[nH]2)cc1	-8	i	16	1	-1	-6	-13	0
S=C(NCCc1ccccc1)N/N=C/C1CCCCC1	-1	i	-8	x	x	x	x	-13
CCOc1cc(S(=O)(=O)NCc2ccccn2)ccc1Cl	-11	i	-3	4	2	-19	x	-8
Cc1cccc(-c2nc3c(c(SCC(=O)N4CCOCC4)n2)COC(C)(C)C3)c1	6	i	4	-4	-2	x	8	-3
CC12CCC(C(=O)Nc3c(Cl)cccc3Cl)(C(Br)C1=O)C2(C)C (stereo unspecified)	1	i	7	1	7	x	-10	13
CCOc1ccccc1N1CCN(C(=O)Nc2cccc(Cl)c2)CC1	3	i	-7	1	-2	x	-30	-10
Cc1cccc(NC(=O)COn2nnc3ccc(S(C)(=O)=O)cc32)c1	-11	i	-4	-2	3	-9	-1	-10
CCOc1cccc2cc(C(=O)Oc3ccc(OC)cc3)c(=O)oc12	12	i	-10	0	0	1	14	6
CCOC(=O)c1ccccc1NC(=O)C1CC(=O)N(c2ccccc2)C1 (stereo unspecified)	6	i	7	6	6	-4	15	14
Cc1ccc(S(=O)(=O)N2CCCCC2)cc1C(=O)OC(C)C(=O)NC1CCCCC1C (stereo unspecified)	x	x	x	1	-5	4	-18	x
CC(=O)c1cccc(-c2ccnc3c2CC(C(=O)NCC2CCOCC2)O3)c1 (stereo unspecified)	x	x	x	6	-5	4	14	x
COc1ccc(Nc2c3c(nc4ccccc24)CCC3)c(OC)c1	15	i	6	-3	-4	-16	26	3
CC1CC(C)CN(C2CCCCC2NS(=O)(=O)c2ccc(Cl)cc2)C1 (stereo unspecified)	-2	i	1	x	x	12	41	2
COc1ccc(C2CC(c3cccs3)=NN2C(=O)CSC2=NN3CCCC(=O)N=C3S2)cc1 (stereo unspecified)	0	i	-3	-2	-5	-3	-27	0
CCCCn1c(N)c(N(CCOC)C(=O)C(C)Oc2ccc(Cl)cc2)c(=O)[nH]c1=O (stereo unspecified)	11	i	x	-1	2	-2	6	x
CC(C)(C)CC(=O)Nc1cccc(-c2cn3cccnc3n2)c1	-6	x	2	2	3	x	-4	3
N#CCOC(=O)c1sccc1-n1cccc1	0	i	-6	3	3	-23	x	-6
Cc1ccc(-c2ccnc(=S)[nH]2)cc1	-37	i	-3	6	6	-18	x	4
COCCOC(=O)c1c(C)n(C)c2ccc(OC(=O)c3c(OC)cccc3OC)cc12	6	i	5	3	-1	-1	21	6
C=CCn1c(CCNC(=O)c2ccccc2F)nnc1SCC(=O)Nc1nc(C)cs1	-10	i	-2	-3	-4	-15	x	8
CN(Cc1ccccc1)c1ccc(S(=O)(=O)N2CCC(C(=O)O)CC2)cc1[N+](=O)[O-]	-8	i	-10	13	13	-2	9	-11
O=S(=O)(O)c1nc2ccccc2n1Cc1ccccc1	2	i	-11	-1	2	-2	11	0
Cc1cccc(OC(C)C(=O)N/N=C\c2ccncc2)c1 (stereo unspecified)	-3	i	25	0	2	-10	-18	3
CN(C)S(=O)(=O)c1cccc(C(=O)NCC2(N3CCOCC3)CCCCC2)c1	4	i	8	2	2	-18	3	-3

High-throughput results deposited in PubChem BioAssay by several laboratories.
